HPGD block = HPGD (human) dehydrogenase inhibition. Potency, µM, inactives show at the top dose activity change, negative = inhibition, most hits filed as inhibitors. purified HPGD, NADH fluorescence kinetic, PGE2 substrate. 150,000 compounds, 4.3% hits; active = well fitted inhibition curve with a large enough effect (not every such curve was filed as active); inconclusive = small, poorly fitted or top-dose-only effect, or another doubt; inactive = no such curve, though single readings can be large or run the other way;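 further: top concentration of the series not given in the record; plate controls included wells without enzyme; inactives centre near -10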
Target sequence (P15428 whole entry, looked up): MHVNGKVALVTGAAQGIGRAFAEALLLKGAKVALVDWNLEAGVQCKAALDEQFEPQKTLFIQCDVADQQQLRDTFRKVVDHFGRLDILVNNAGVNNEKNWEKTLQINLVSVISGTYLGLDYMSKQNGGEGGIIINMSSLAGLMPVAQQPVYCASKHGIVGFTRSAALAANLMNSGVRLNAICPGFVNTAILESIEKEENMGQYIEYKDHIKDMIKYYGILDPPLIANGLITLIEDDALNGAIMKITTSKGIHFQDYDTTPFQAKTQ
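NADH formation kinetics: reaction with 30 uM PGE2 and 1 mM NAD+ (final), 20 nM enzyme, Tris-HCl pH 8 with Tween 20, after 15 min compound preincubation at room temperature. Fluorescence change, last versus first of five reads.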
* hit, by the source's call; ? = inconclusive; & = joins results of further samples. On the % scale 0 is the no-effect control and ±100 the full control effect; potency means the concentration at half of the fitted maximal effect. The list is partial. The share of hits here may be higher or lower than overall.

Compound | HPGD block
CCN(CC)CC(=O)NN=C(c1ccccc1)c1ccccc1 | -5%
O=C1C=C(N2CCN(c3ccccn3)CC2)C(=O)c2c(O)ccc(O)c21 | -12%
CC(CN1CCNCC1)(NS(=O)(=O)c1ccccc1)c1ccccc1 (centres undefined) | -5%
Cc1ccc(/C=N/Nc2ncc(Cl)cc2Cl)s1 | -16%
COc1ccc(C2=NO[C@@H]3C(=O)N(C4CCCCC4)C(=O)[C@H]23)cc1OC | -9%
COc1cccc(-c2nc(Cc3ccc(OC)c(OC)c3)no2)c1 | ?
COc1ccc(CC2(C)OC(c3ccc(Cl)cc3)=NN2C(C)=O)cc1 (centres undefined) | ?
CCOC(=O)c1ccc(COC(=O)c2ccc3c(c2)-c2ccccc2C3=O)cc1 | -16%
O=S(=O)(O)c1cc(S(=O)(=O)O)c2c(N=Nc3cccc4ccccc34)c(O)ccc2c1 | -8%
CCNc1nc(NCC)nc(N/N=C/c2ccc([N+](=O)[O-])o2)n1 | -11%
CC1CCN(C(=O)COC(=O)c2ccc(Br)o2)CC1 | -14%
CCNC(=S)N/N=C/c1ccc(OCC(=O)Nc2ccc(C)cc2)cc1 | -21%
Oc1ccc(Br)cc1/C=N/N1CCCCC1 | ?
CC(C)(C)NC(=O)NC(=O)COC(=O)c1ccc(OC(F)F)cc1 | -3%
CCC1(c2ccccc2)C(=O)NCNC1=O | -7%&-7%&-10%&-11%&-1%&3%
COc1ccccc1CN1C(=O)c2cccc3cccc(c23)C1=O | -8%
O=C(CNS(=O)(=O)c1ccc(C(=O)N2CCOCC2)cc1)N1CCOCC1 | -9%
Cc1ccc(S(=O)(=O)N(CC(=O)N=Nc2c(O)[nH]c3ccccc23)c2cccc(C)c2)cc1 | ?
C=CCOC(=O)C1=C(C)OC(N)=C(C#N)C1c1ccc(F)cc1 (centres undefined) | -14%
CC(=O)SC1CC2=CC(=O)CC[C@@]2(C)C2CC[C@@]3(C)[C@@H](CC[C@@]34CCC(=O)O4)C12 (some centres undefined) | -3%
CC(C)Sc1nc(N2CCOCC2)c2c(c1C#N)CC(C)(C)N(C)C2 | -12%
O=C(CCc1nc(-c2ccccc2)c(-c2ccccc2)o1)OCc1ccc(Cl)cc1 | -17%
COc1ccc(CNS(=O)(=O)c2cc(OCC(N)=O)c(C)cc2Cl)cc1 | 3%
COc1ccc(CC(=O)c2c(O)cc(O)cc2O)cc1OC | 32µM*
CN(Cc1ccccc1)c1oc(-c2ccco2)nc1C#N | ?
CC1(C)N(O)CC(c2cccs2)=[N+]1[O-] | 2%
Cc1ccc(NC(=O)c2ccccc2[N+](=O)[O-])nc1 | -7%
c1ccc(-n2ncc3c(NCc4ccco4)ncnc32)cc1 | ?
Cc1ccc(-c2cc(C)nc3ncnn23)cc1 | ?
Cc1cccc(N2CN(Cc3cccnc3)CNC2=S)c1C | 0%
COc1ccccc1-n1c(C)nc(=O)c(-c2ccccc2)c1C | -5%
CC(C)c1ccccc1NC(=S)NN(Cc1ccccc1)c1ccccc1 | -5%
O=C(O)c1ccc(-n2c(-c3cc(-c4ccco4)[nH]n3)n[nH]c2=S)cc1 | ?
Cc1nc2c(c(=O)n1CCC(C)C)c1nc3ccccc3nc1n2Cc1ccc2c(c1)OCO2 | -9%
c1cncc(Cc2cc3ccccc3[nH]2)c1 | -11%
COc1ccccc1N1CCN(C(=O)C(C)N(c2ccc(C)cc2)S(C)(=O)=O)CC1 (centres undefined) | 0%
O=C(CCSc1ccccc1)NCc1cccnc1 | 0%
CCOc1c(Br)cc(/C=C2/SC(=O)N(CC(=O)N3CCCC3)C2=O)cc1OC | -21%
C/C=C/Cn1c(SCCCc2ccccc2)nc2c1c(=O)[nH]c(=O)n2C | -14%
O=C(CNC(=O)c1ccccc1)OCc1cc(=O)n2cc(Br)ccc2n1 | -28%
COc1ccc(NC(=O)N2CCN(c3nc(-c4cccc(OC)c4)cs3)CC2)cc1 | -21%
CC(NC(=O)Nc1ccc(Cl)cc1)C(c1cccs1)N1CCOCC1 (centres undefined) | -1%
COc1ccc(/C=C/C(=O)c2cc(F)ccc2OC(=O)c2ccc(OC)c(OC)c2)cc1OC | ?
COc1ccc(C(=O)O)cc1NS(=O)(=O)c1cccc2nsnc12 | -17%
Cc1ccc(NC(=O)CSc2nnc(CNC(=O)C34CC5CC(CC(C5)C3)C4)n2-c2ccc(F)cc2)cc1 | -9%
CC(=O)c1cnc2ncnn2c1C | -4%
O=C(N/N=C/C1CCCCC1)c1ccccn1 | -4%
CC(C)NC(=S)NC1(C)CCS(=O)(=O)C1 (centres undefined) | -14%
COC(=O)c1ccccc1NC(=O)CSc1nnc(C(CO)NC(=O)c2ccccc2)n1C (centres undefined) | -10%
COc1ccc(CNc2nc(-c3cccnc3)nn2C(=O)c2ccco2)cc1 | -13%
Cc1ccc(/C=C(/C#N)c2nc(CCN3C(=O)c4ccccc4C3=O)cs2)cc1 | -14%
CC(=O)N1CCCc2cc(S(=O)(=O)NCc3ccc(C)cc3)ccc21 | -8%
O=C(Nc1ccccc1)O/N=C/c1ccccc1Cl | 40µM*
Cc1cc([N+](=O)[O-])ccc1N | -9%
Cn1c(=O)c2c(nc(NCc3cccnc3)n2Cc2ccc(Cl)cc2)n(C)c1=O | -1%
COCCCNC(=O)CCc1nc(-c2ccccc2Cl)no1 | -23%
COC(=O)c1c(NC(NC(=O)C(C)C)C(Cl)(Cl)Cl)sc2c1CCCC2 (centres undefined) | -12%
COC(=O)c1cc(-c2ccc(C)o2)nc2ccccc12 | ?
COc1cc(C=O)ccc1OCCSc1ccc(Cl)cc1 | 11µM*
COC(=O)c1ccccc1NC(=O)c1c(O)c2cccc3c2n(c1=O)CCC3 | ?

Ordered by value in HPGD block (largest number first): some entries from above
Compound | HPGD block
O=C(Nc1ccccc1)O/N=C/c1ccccc1Cl | 40µM*
COc1ccc(CC(=O)c2c(O)cc(O)cc2O)cc1OC | 32µM*
COc1cc(C=O)ccc1OCCSc1ccc(Cl)cc1 | 11µM*

Further records:
Compound | HPGD block
Cc1ccc(N2C(=O)[C@@H]3[C@H](C2=O)C2c4ccccc4C=CN2[C@@H]3C(=O)c2ccco2)cc1 (some centres undefined) | 32µM*
Nc1nc(-c2ccccc2)c(CC(=O)O)s1 | -16%
Cn1ccnc1C(O)c1ccco1 (centres undefined) | -1%
CCOC(=O)CC(=O)CSc1ncc(C(=O)OCC)c(N)n1 | -28%
N#C/C(=N/Nc1ccccc1F)C(=N)N1CCOCC1 | -23%
CS(=O)(=O)NCc1ccc(C(=O)NCc2ccccc2)cc1 | -14%
COc1ccc(CCNC(=O)Cn2nnc(-c3ccc(N(C)C)cc3)n2)cc1OC | ?
COC(=O)CN1CCN(C(=O)c2ccc(F)cc2)c2ccccc2C1 | -1%
CCOC(=O)c1c(NC(=O)COc2ncnc3ccccc23)sc(C(C)=O)c1C | -9%
COc1ccccc1CC(=O)N1CCCC1 | -15%
COC(=O)c1c(NC(=O)CN2CCN(Cc3ccc4c(c3)OCO4)CC2)sc(C)c1C | -9%
Cc1cc(NC(=O)C(C)C)ncc1NC(=O)Cc1ccccc1 | -6%
O=C(CN1CCOCC1)OCCCc1ccccc1 | -4%
CCC(CO)N=CC1=C(O)C(C(=O)c2ccccc2)CCC1=O (centres undefined) | -5%
C(=N\n1cnnc1)/c1cccn1-c1ccccc1 | -28%

Brought forward from above: six entries; new compounds follow.
Compound | HPGD block
COc1ccccc1CC(=O)N1CCCC1 | -15%
COC(=O)c1c(NC(=O)CN2CCN(Cc3ccc4c(c3)OCO4)CC2)sc(C)c1C | -9%
Cc1cc(NC(=O)C(C)C)ncc1NC(=O)Cc1ccccc1 | -6%
O=C(CN1CCOCC1)OCCCc1ccccc1 | -4%
CCC(CO)N=CC1=C(O)C(C(=O)c2ccccc2)CCC1=O (centres undefined) | -5%
C(=N\n1cnnc1)/c1cccn1-c1ccccc1 | -28%
Cc1ccccc1-c1cc(C(=O)Nc2sc(C)c(C)c2C(N)=O)c2ccccc2n1 | 32µM*
Cc1ccc(Oc2cc(-n3nc(C)cc3C)ncn2)cc1 | -4%
CCCOc1ccccc1NC(=O)c1c(-c2ccccc2)noc1C | -1%
C/C(O)=C(/N=O)C(=O)Nc1ccccc1 | -3%
COc1ccc(N2CCN(C(=O)CCCn3c(=O)[nH]c4cc(Cl)ccc4c3=O)CC2)cc1 | -11%
c1ccc(CSC2=NCCCN2)cc1 | -3%
O=S(=O)(Nc1ccccc1N1CCOCC1)c1ccc(Cl)s1 | -16%
COc1ccccc1-c1nnc(NC(=O)c2ccc3ncsc3c2)o1 | -16%
CCC(C)Sc1nc2c(c(=O)[nH]c(=O)n2C)n1Cc1ccc(Cl)cc1 (centres undefined) | -7%
CN(C)c1nc(Cl)nc(NCCOc2ccccc2)n1 | -2%
CC(=O)c1ccc(OCCCC(=O)NCC(c2ccco2)N(C)C)cc1 (centres undefined) | -1%
Nc1c(C(=O)NCc2ccco2)nnn1-c1ccccc1 | -14%
Cc1cccc(OC(C)C(=O)N2CCCc3ccccc32)c1 (centres undefined) | -7%
CCOc1ccccc1NC(=S)NC1CCCCC1 | -3%
Cc1ccc(NCCC(=O)c2cccc([N+](=O)[O-])c2)c(C)c1 | -19%

Next section
Compound	HPGD block
COc1ccc(Cl)cc1NC(=O)Nc1ccc(Br)cn1	-10%
Cc1ccc(C2CN(c3ccccc3)CC2C(=O)c2ccc(F)cc2)cc1 (centres undefined)	-7%
FC(F)(F)c1cc(-c2ccco2)nc(NCc2ccc(Cl)cc2)n1	-18%
COc1ccc(OC)c(NC(=S)NCCSc2ccc(C)cc2)c1	-12%
COc1ccc(-c2cc(C(F)F)n3ncc(C(=O)N4CCN(C(=O)c5ccco5)CC4)c3n2)cc1	?
Cc1ccc(CNC(=O)c2ccc(COc3ccccc3)cc2)cc1	-1%
COc1ccccc1NC(=O)CN1CCN(C2c3ccccc3-c3ccccc32)CC1	-4%
COc1ccc(C(=O)N(C)Cc2ccccc2)cc1Br	-24%
COc1ccc(OC)c(C(=O)CSc2nc3c(c(=O)n(C)c(=O)n3C)n2C(C)C)c1	-13%
CCOC(=O)c1c(SC)nc(SC)c2c1CCC2	-4%
Cc1ccccc1Nc1nc(N)nc(COC(=O)CC2CC3CCC2C3)n1 (centres undefined)	-4%
Cn1cc(Cl)c(-c2n[nH]c(=S)n2-c2ccccc2)n1	-19%
COc1ccc(N=CC2=C(O)CCCC2=O)cc1	-20%
Cc1nnc(NC(=O)C2CCCO2)s1 (centres undefined)	13µM*
COc1ccc(S(=O)(=O)Cc2ccc(C(=O)NCCCN3CCc4ccccc4C3)o2)cc1	-3%
Cc1cccc(NC(=O)CCC(=O)N/N=C/c2cc([N+](=O)[O-])ccc2O)c1	-21%
COc1ccc(CN(CC(=O)NC2CCCC2)C(=O)CCC(=O)Nc2cc(C)on2)cc1	-10%
CCOC(=O)c1c(C=O)c(C)n(Cc2ccccc2)c1C	-5%
N#C/C(=C/c1ccc(N2CCCC2)c([N+](=O)[O-])c1)c1nc2ccccc2[nH]1	-17%
O=C(CSc1ccc(-c2ccco2)nn1)NCc1ccc(Cl)cc1	-18%
CCOc1ccc2nc(NC(=O)C(NS(=O)(=O)c3cccc4nsnc34)C(C)C)sc2c1 (centres undefined)	-6%
c1ccc(-c2csc3nnc(SCc4ccc5c(c4)OCO5)n23)cc1	22µM*
CC1CCc2nn(CC(=O)N3CCCCCC3)cc2C1 (centres undefined)	-2%
Cc1ccc(Cn2c(=O)sc3ccccc3c2=O)cc1	-17%
Cc1nn(C)c(C)c1NC(=O)C12CC3CC(CC(C3)C1)C2	-6%
COc1ccc(-c2cc(C3CC3)nc3sc(C#N)c(N)c23)cc1	?
O=C(c1ccc(Cl)c([N+](=O)[O-])c1)N(c1ccccn1)c1ccccn1	-6%
Cc1nc(N2CCOCC2)c2cc(-c3ccccc3)sc2n1	?
C=CCSc1nnc2n(-c3ccccc3OC)c(=O)c3c4c(sc3n12)CCC4	-9%
O=C(N/N=C/c1coc2ccccc2c1=O)c1ccccc1Br	-29%
O=S(=O)(c1ccc(F)cc1)c1nc(-c2ccc(F)cc2)oc1NCCN1CCOCC1	-7%
O=C(COc1ccccc1)Nc1cccc(-c2nc3cc4ccccc4cc3[nH]2)c1	?
COc1ccc(-c2csc(NC(=O)C3CCCCN3S(=O)(=O)c3ccccc3)n2)cc1 (centres undefined)	-13%
O=C(c1ccc(=O)oc1)N1CCN(c2ccc(F)cc2)CC1	?
CCOC(=O)C1(C)C(C(=O)OC)=C(c2ccc(OC)cc2)c2ccccc2N1C(=O)OC (centres undefined)	?
CCN(CC)c1ccc(-c2nc3cnccc3n2C)cc1	?
COCCn1c(=O)[nH]c2cc(C(=O)NCCN3CCN(c4ccccc4)CC3)ccc2c1=O	-21%
CC(C)NC(=O)c1cc(-c2ccco2)nn1-c1ccc(Cl)cc1	?
Cc1ccc(S(=O)(=O)N(C)CC(=O)N2CCN(C(=O)c3ccco3)CC2)cc1	-4%
CCOc1ccc(Nc2nc(Cc3nnc(SCC(=O)NC4CCCCC4)n3C)cs2)cc1	-8%
Cc1ccc(OCC(=O)N(c2ccccn2)C2CCCCC2)c(C)c1	-4%

A draw from above in order of length of the SMILES, ascending:
Compound	HPGD block
CC(C)NC(=O)c1cc(-c2ccco2)nn1-c1ccc(Cl)cc1	?
CCOc1ccc(Nc2nc(Cc3nnc(SCC(=O)NC4CCCCC4)n3C)cs2)cc1	-8%
COCCn1c(=O)[nH]c2cc(C(=O)NCCN3CCN(c4ccccc4)CC3)ccc2c1=O	-21%

Screens: PubChem BioAssay, National Center for Advancing Translational Sciences (NCATS)
